From PubChem BioAssay
NPYLR7 agonist – mosquito NPYLR7 agonism; HEK293T NPYLR7/Galpha15, GCaMP6s calcium fluorescence; activation, % at 10 µM; 270,000 tested, 0.15% active; AID 1259423; in the data active = activation above about 40%;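 also: 0% = vehicle and 100% = reference agonist at the receptor; some compounds past the cut are filed as inactive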
NPYLR7 agonist max-min – second read-out of NPYLR7 agonist, no call of its own (marks repeat the call); activation, %; measured here: Max-Min RFU normalised activation; some inactives read as strong as hits;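 span of the calcium signal over five minutes; 0% = vehicle and 100% = native peptide agonist; compound fluorescence can raise it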
* marks the source's active call; other numbers are inactive results; & = joins results of further samples; ! = not confirmed by another sample.

The first 24 entries (preview)
SMILES	NPYLR7 agonist	NPYLR7 agonist max-min
Cc1cc(C(=O)N2CCC(N3CCCC(C(=O)N4CCCC4)C3)CC2)on1 (stereo unspecified)	-8	-12
O=C(c1ccc(N2CCC(NCc3cccs3)CC2)cc1)N1CCCC(CO)C1 (stereo unspecified)	3	1
Cc1[nH]n(-c2nc(-c3ccccc3)cs2)c(=O)c1N=Nc1cccc(C(=O)O)c1	3	2
CN(C)C(CNS(=O)(=O)Cc1ccccc1F)c1cccs1 (stereo unspecified)	3	-6
CC1CN(c2cc(Oc3ccccc3Cl)ncn2)CCN1 (stereo unspecified)	4	11
CCn1nccc1NC(=O)COc1cccc2ccccc12	2&1	2&-1
COc1cccc2cc(-c3nnc(Nc4ccc(Br)cc4)s3)c(=O)oc12	-3	-9
CCOc1ccc(-c2ccc(C(=O)N(CC(C)C)CC(C)C)s2)cc1	5	3
COCCN(Cc1ccc(C)o1)CC(O)COC(C)C (stereo unspecified)	21	28
O=C(NC(c1ccccc1)c1cnccn1)C1CCN(CCOc2ccccc2)CC1 (stereo unspecified)	4	1
CCCOC(=O)C1=C(C)N(C)C(=O)NC1c1cc(OC)ccc1OC (stereo unspecified)	9	14
COc1ccccc1-n1cc(CN2CCCC(N3CCc4ccccc4C3)C2)cn1 (stereo unspecified)	-6	-8
CC(Cc1cnccn1)Nc1ccc(-c2nc(-c3cccc(Cl)c3)no2)cn1 (stereo unspecified)	9	2
CC12CC(c3ccccc3O1)C(S(=O)(=O)c1ccccc1)C(=O)N2 (stereo unspecified)	9	12
COc1ccc(C(=O)NNC(=O)C2CC2)cc1S(=O)(=O)N1CCCC1	0	6
CCOC(=O)N1CCN(C2CCCN(C(=O)c3c4c(nn3C)CCCC4)C2)CC1 (stereo unspecified)	5&0	-1&-2
CC1(C)CC(=O)C2C(=Nc3ccccc3NC2c2cccc(Cl)c2Cl)C1 (stereo unspecified)	-8	-11
CCCc1nc(N2CC[C@@H](c3ccc4ccccc4c3)[C@H](O)C2)no1	9	8
CN(C(=O)CSc1nc2cc(Cl)ccc2s1)C1CCS(=O)(=O)C1 (stereo unspecified)	8	11
Cc1c(C(=O)NC(C)(C)C)c(C(F)(F)F)nn1C1CCCN(C(C)C)C1 (stereo unspecified)	11	3
CCOC(=O)Cn1c(=NC(=O)c2ccn(C)n2)sc2cc3c(cc21)OCCO3	2	7
O=C1C=Cc2ccccc2C1=Cc1sc(=S)[nH]c1O	-5	-7
Cc1cc(C)c2c(N)c(-c3cc(=O)oc4cc(C)c(O)cc34)sc2n1	11	13
CCS(=O)(=O)Oc1ccc(CN(Cc2ccco2)C(=O)NC23CC4CC(CC(C4)C2)C3)cc1	-8	4

The listing, repeating the preview:
SMILES	NPYLR7 agonist	NPYLR7 agonist max-min
Cc1cc(C(=O)N2CCC(N3CCCC(C(=O)N4CCCC4)C3)CC2)on1 (stereo unspecified)	-8	-12
O=C(c1ccc(N2CCC(NCc3cccs3)CC2)cc1)N1CCCC(CO)C1 (stereo unspecified)	3	1
Cc1[nH]n(-c2nc(-c3ccccc3)cs2)c(=O)c1N=Nc1cccc(C(=O)O)c1	3	2
CN(C)C(CNS(=O)(=O)Cc1ccccc1F)c1cccs1 (stereo unspecified)	3	-6
CC1CN(c2cc(Oc3ccccc3Cl)ncn2)CCN1 (stereo unspecified)	4	11
CCn1nccc1NC(=O)COc1cccc2ccccc12	2&1	2&-1
COc1cccc2cc(-c3nnc(Nc4ccc(Br)cc4)s3)c(=O)oc12	-3	-9
CCOc1ccc(-c2ccc(C(=O)N(CC(C)C)CC(C)C)s2)cc1	5	3
COCCN(Cc1ccc(C)o1)CC(O)COC(C)C (stereo unspecified)	21	28
O=C(NC(c1ccccc1)c1cnccn1)C1CCN(CCOc2ccccc2)CC1 (stereo unspecified)	4	1
CCCOC(=O)C1=C(C)N(C)C(=O)NC1c1cc(OC)ccc1OC (stereo unspecified)	9	14
COc1ccccc1-n1cc(CN2CCCC(N3CCc4ccccc4C3)C2)cn1 (stereo unspecified)	-6	-8
CC(Cc1cnccn1)Nc1ccc(-c2nc(-c3cccc(Cl)c3)no2)cn1 (stereo unspecified)	9	2
CC12CC(c3ccccc3O1)C(S(=O)(=O)c1ccccc1)C(=O)N2 (stereo unspecified)	9	12
COc1ccc(C(=O)NNC(=O)C2CC2)cc1S(=O)(=O)N1CCCC1	0	6
CCOC(=O)N1CCN(C2CCCN(C(=O)c3c4c(nn3C)CCCC4)C2)CC1 (stereo unspecified)	5&0	-1&-2
CC1(C)CC(=O)C2C(=Nc3ccccc3NC2c2cccc(Cl)c2Cl)C1 (stereo unspecified)	-8	-11
CCCc1nc(N2CC[C@@H](c3ccc4ccccc4c3)[C@H](O)C2)no1	9	8
CN(C(=O)CSc1nc2cc(Cl)ccc2s1)C1CCS(=O)(=O)C1 (stereo unspecified)	8	11
Cc1c(C(=O)NC(C)(C)C)c(C(F)(F)F)nn1C1CCCN(C(C)C)C1 (stereo unspecified)	11	3
CCOC(=O)Cn1c(=NC(=O)c2ccn(C)n2)sc2cc3c(cc21)OCCO3	2	7
O=C1C=Cc2ccccc2C1=Cc1sc(=S)[nH]c1O	-5	-7
Cc1cc(C)c2c(N)c(-c3cc(=O)oc4cc(C)c(O)cc34)sc2n1	11	13
CCS(=O)(=O)Oc1ccc(CN(Cc2ccco2)C(=O)NC23CC4CC(CC(C4)C2)C3)cc1	-8	4
CN(CCc1ccncc1)S(=O)(=O)c1ccc(N2C(=O)CCS2(=O)=O)cc1	1	-2
O=C(c1ccc[nH]c1=O)N(Cc1ccsc1)CC1CCCO1 (stereo unspecified)	11	-1
CCc1cccc(NC(=O)N(CC(=O)N(Cc2ccccc2)Cc2sccc2C)C(C)C)c1	-4	6
Brc1cc2c(cc1CN1CCN(c3ccccn3)CC1)OCCO2	5	6
Cc1cnc(NC(=O)C2CCN(C(=O)OC(C)(C)C)CC2)s1	7	5
O=C(CCc1ccccc1)Nc1nnc(SCc2c(F)cccc2F)s1	21	23
CC1(C(=O)OCC(=O)NC2CCS(=O)(=O)C2)CC1(Cl)Cl (stereo unspecified)	2	2
CCOC(=O)N1CCN(C(=O)CSc2nnc(C)c3cnn(-c4ccc(F)cc4)c23)CC1	-11	-18
O=C(Oc1coc(CSc2ncccn2)cc1=O)c1ccc(Br)o1	-15	-8
O=C(Nc1nc(-c2ccc(Br)cc2)cs1)c1c(O)c2ccccc2[nH]c1=O	11	20
CC(C)(C)NC(=O)CSc1nc(O)cc(=O)n1-c1ccccc1	-10	-15
COCCCN(CC(=O)N(Cc1ccccc1)Cc1cccn1Cc1cccc(OC)c1)C(=O)/C=C/c1ccccc1	1	6
Cc1ccc(CN(CC(O)Cc2ccccc2)CC2CCCO2)s1 (stereo unspecified)	29	31
CCn1ncnc1C(C)NC(=O)c1ccccc1-c1ncc[nH]1 (stereo unspecified)	6	5
COC(=O)NNS(=O)(=O)c1cccc(Br)c1	0	42
CCOc1ccc(NC(C)=O)cc1	71*!	54*!
O=C(NCc1noc(-c2ccco2)n1)c1cnn2c1CCCC2	-2	-2
Oc1ccccc1-c1noc(-c2ccccc2O)n1	1	0
COc1ccc(-c2cc(COC(=O)C3=COCCO3)on2)cc1	9	5
O=C1/C(=C/c2ccc(-c3cc(Cl)ccc3Cl)o2)C=C(c2ccccc2)N1Cc1ccccc1	0	-1
C=C(C)Cn1c(N(C)Cc2ccccc2)nc2c1c(=O)n(C)c(=O)n2C	4	-4
O=C(Cn1nc2c(SC3CCCCC3)nccn2c1=O)N1CCN(c2ccc(F)cc2)CC1	-2	-2
COCCN1C(=O)N(Cc2ccccc2)C2(CCN(Cc3ccc4c(c3)Cc3ccccc3-4)CC2)C1=O	6	-6
CCOC(=O)CCC(=O)N1CCN(C(=O)c2cc3ccoc3n2Cc2ccc(C)cc2)CC1C (stereo unspecified)	8	19
CCOC(=O)C1CCN(C(=O)c2cc(-c3ccc(OC)cc3OC)nn2-c2cccc(Cl)c2)CC1	-6	-4
CC(C)(C)CN1CCCC2(CCN(C(=O)c3ccc(Cn4cnnn4)cc3)C2)C1 (stereo unspecified)	5	0
CC(c1ccc(F)cc1)N1CCC(C(=O)NC2CCCCC2)CC1 (stereo unspecified)	3	-1
CC(C)c1nn(C)c(Cl)c1CNCC(O)c1ccccc1 (stereo unspecified)	5	3
COc1ccc(CC(=O)N2CCOC(COc3ccccc3OC)C2)cn1 (stereo unspecified)	30	24
O=C1/C(=C/c2ccc(-c3ccc(Br)cc3)o2)C=C(c2ccccc2)N1c1ccc(Br)cc1	-2	0
Cc1nc(CCNC(=O)CCNC(=O)c2ccc(F)cc2)nc2c1CCC2	7	5
COCC(=O)Nc1ccc(-c2ccc(F)cc2OC)cc1	11	9
C=c1onc(-c2ccccc2)c1=c1[nH]/c(=C\c2c[nH]c3ccccc23)c(=O)o1	2	1
O=c1c2ccccc2cnn1-c1ccc(F)cc1F	22	13
Fc1cccc(Oc2cc(N3CCN(c4ccccc4F)CC3)ncn2)c1	-16	-13
CC(C)c1cc(NC(=O)C2CCN(C)C(=O)C2)n[nH]1 (stereo unspecified)	12	10

New compounds follow.
SMILES	NPYLR7 agonist	NPYLR7 agonist max-min
Cc1ccc(CN(Cc2ccc3c(c2)OCO3)C(=O)CN(CC2CCCO2)C(=O)C2CCC2)o1 (stereo unspecified)	-5	3
CCOc1ccc(C2c3[nH]c4ccccc4c3CCN2C(=O)c2cccc(C)n2)cc1 (stereo unspecified)	14	1
Clc1ccc(-c2noc(CSc3nnc(Cn4cncn4)o3)n2)cc1	0	-3
O=S(=O)(c1ccccc1C(F)(F)F)N1CCN(CCCOC(c2ccc(Cl)cc2)c2ccc(Cl)cc2)CC1	6	2
O=c1[nH]cnc2nc(NN=Cc3ccc(Br)cc3)[nH]c12	-13	-16
CSc1cccc(-n2nnc(C(=O)OCc3cccc(C)c3)c2C)c1	15	6
CN(Cc1ccccc1C(=O)O)C1Cc2ccccc2C1	0	-1
Cc1cccc(-c2cc(N)n(-c3ccc(C(=O)NCCc4c[nH]c5ccccc45)cc3)n2)c1	-11	-11
O=C(NCC1(c2cccc(F)c2)CCOCC1)C1CC2(CCNCC2)CN1 (stereo unspecified)	9	9
COc1ccc(Cl)cc1NC(=O)CCc1csc(NC(=O)c2ccc[nH]c2=O)n1	-6	-13
CCNC(=O)C1(C)CCCN(Cc2ccc3ccccc3c2Br)C1 (stereo unspecified)	8	4
Nc1nc(SCC(=O)N2CCN(c3ccccc3)CC2)[nH]c(=O)c1NC(=O)c1ccccc1	-5	-10
Cc1nccn1CC1CCCN(Cc2cc3c(cc2Cl)OCO3)C1 (stereo unspecified)	1	-8
COc1ccccc1CN(Cc1ccco1)CC(O)Cc1ccccc1 (stereo unspecified)	-1	5
O=C(c1ccc(Cn2ccnc2)o1)N1CCCC(c2ccn[nH]2)C1 (stereo unspecified)	0	0
O=C(c1ccc(F)c(F)c1)N1CCC(n2c(=O)[nH]c3ccccc32)CC1	0	-5
COc1cccc(C(=O)OC(CC(C)C)c2ccccn2)c1 (stereo unspecified)	2	2
CCOC(=O)c1cc(-c2ccc(Cl)cc2)n(-c2ccc(C(=O)NCC3CCCO3)cc2)n1 (stereo unspecified)	-1	-3
CCC(=O)Nc1c(-c2cccc(OC)c2)nc2ccccn12	-4	1
COc1ccccc1/C=C1\C(=O)N(c2cccc(Cl)c2)N=C1C	11	16
COc1ccc(C2c3c(n[nH]c3-c3ccccc3)OC(=N)C2C#N)cc1OC (stereo unspecified)	-5	-10
Cc1ccc(CNc2ccnc3c(-c4ccc(N)cc4)cnn23)c(C)c1	-6	-9
CCc1c(C)nc(-c2cccc(C(F)(F)F)c2)nc1N1CCN(C(=O)Nc2ccc(F)c(Cl)c2)CC1	-5	0
CCn1cc(C(=O)NCCn2ncc3c(=O)n(Cc4ccccc4C)cnc32)c(=O)c2ccc(C)nc21	-4	-9
COc1ccccc1-n1c(-c2ccc(Cl)cc2)cc(C(=O)N2CCN(c3ccccc3Cl)CC2)c1C	-5	-4
CCOCCCN1C(=O)CNC1=S	31	34
Cc1ccc(NC(=O)C2(C)CCN2Cc2ccc(C(C)C)cc2)cc1 (stereo unspecified)	9	6
COCCN(Cc1cc(NC(=O)C2CC2)ccc1N(C)C)C(=O)c1ccc(F)cc1	-13	-7
CC(=O)Nc1cccc(NC(=O)CSc2nc(=O)n3ccc(C)cc3n2)c1	3	2
CC1=NN(CCN2CCOCC2)c2nc3c(c(=O)n(Cc4ccccc4)c(=O)n3C)n2C1	-2	13
Cc1cc(C(=O)Nc2ccnc(Oc3ccccc3)c2)nn1C	2	-1
COc1ccc(C2=N/C(=C\c3coc4ccccc4c3=O)C(=O)O2)cc1	2	3
CC(C)N(CC(=O)N(Cc1cccn1Cc1ccccc1Cl)C1CCCCC1)S(=O)(=O)c1cccc2cccnc12	-8	0
COc1ccccc1-c1cc(CN(C(=O)Nc2ccc(F)c(F)c2)C2CC2)no1	25	18
CO[C@H]1CN(C(=O)COc2ccccc2)[C@@H]2Cc3c(n(C)c4ccccc34)[C@H]1C2	-4	-1
COc1ccc2nc(Nc3nc(C(C)(C)C)cs3)sc2c1	5	2
CCn1c(CC2CCN(C(=O)C3COc4ccccc4O3)CC2)nn(C)c1=O (stereo unspecified)	8	7
Nc1nc2c(=O)[nH]nc(-c3ccc(F)cc3)c2s1	-4	-3
c1coc(CN2CCc3[nH]nc(-c4ccc5c(c4)OCO5)c3C2)c1	8	3
O=C(Nc1ccc(F)cc1)N1CC(=O)N2CCc3c(F)cccc3C2C1 (stereo unspecified)	-4	2
CCCc1nc2ccc(NC(=O)c3ccc(NC(C)=O)cc3)cn2n1	6	-3
O=C(c1ccc(F)cc1)N(Cc1nccn1Cc1ccc(C(F)(F)F)cc1)CC1CC1	13	25
Cc1c(C(=O)OCC(=O)NC(=O)NC2CCCC(C)C2C)cnn1C (stereo unspecified)	7	7
Cc1cc(-c2ccc(F)cc2)nc2cc(C(=O)Nc3ccccc3C(F)(F)F)nn12	-2	-2
O=C(Nn1cnnc1)c1csc2ccccc12	-2	-2
Cc1ccc(C(C)C)cc1S(=O)(=O)Nc1ccc(F)cc1	4	2

Not all compounds are listed; rates above refer to the full screens.
